StopGo reporter = FMDV 2A StopGo reporter, luciferase signal; human cells with a luciferase reporter of 2A StopGo recoding; control for the full effect not named in the record; Potency, µM (highest dose often 57.9 µM), for inactives: at the highest dose signal change, negative = less light; 1.2% of 410,000 active; AID 1159524; active = well fitted falling curve with a large enough effect; inconclusive = small, poorly fitted or top-dose-only effect; inactive = no such curve, though single readings can be large or run the other way; tested in HEK293T cells; note: % is set by controls: 0 for no effect and ±100 for the full control effect; nearly all actives have a fitted effect of over 45% in size; luciferase light after 4 h
NS1 function inh = influenza NS1 inhibition | S. cerevisiae slowed by influenza A NS1, growth recovery by OD600 | Potency, µM (highest dose often 46.1 µM), for inactives: at the highest dose activity, positive = more growth | 0.4% of 270,000 active | AID 2326; active means well fitted rising curve with a large enough effect; inconclusive means small, poorly fitted or top-dose-only effect; inactive means no such curve, though single readings can be large or run the other way; note: nearly all actives have a fitted effect of over 50% in size
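In this qHTS, NS1 from influenza A is expressed in budding yeast, where it slows growth. Cells are switched from glucose to 2% galactose medium (pH 6.0, -URA), treated with compound, and growth recovery is read at OD600.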
Cruzain inh noDet = cruzain (T. cruzi) inhibition without detergent | purified cruzain, Z-FR-AMC fluorescence, no detergent | Potency, µM, without a hit: max response, negative = inhibition, hits mostly inhibitors | 2.3% of 200,000 active;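 note: plate controls were enzyme without inhibitor for no effect and buffer without enzyme for full effect; nearly all actives have a fitted effect of over 40% in size; top concentration of the series not given in the record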
Target sequence (P25779 123-467 limits assumed): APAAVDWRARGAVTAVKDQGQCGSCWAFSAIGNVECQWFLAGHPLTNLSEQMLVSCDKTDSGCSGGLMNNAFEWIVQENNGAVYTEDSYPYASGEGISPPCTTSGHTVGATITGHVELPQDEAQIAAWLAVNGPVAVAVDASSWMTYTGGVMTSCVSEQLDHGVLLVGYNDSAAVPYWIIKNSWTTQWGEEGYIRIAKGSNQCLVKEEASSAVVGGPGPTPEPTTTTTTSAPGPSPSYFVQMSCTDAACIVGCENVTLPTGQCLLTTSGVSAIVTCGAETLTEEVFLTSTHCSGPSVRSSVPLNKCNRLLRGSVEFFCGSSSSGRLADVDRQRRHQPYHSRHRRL
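Detergent-free condition (0.00005% Triton X-100) in acetate buffer pH 5.5 with DTT. 1.5 nM enzyme and compound were pre-mixed 15 min, then 2 uM Z-FR-AMC substrate added; reaction progress from fluorescence change between first and third reads (60 s).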
Cruzain inh Det = cruzain (T. cruzi) inhibition with detergent. P25779. purified cruzain, Z-FR-AMC fluorescence, 0.01% Triton. Potency, µM, for the others: max response, negative = inhibition, usual class: inhibitors. 0.43% of 200,000 active. AID 1478;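 note: plate controls were neutral wells for no effect and buffer without enzyme for full effect; nearly all actives have a fitted effect of over 40% in size; top concentration of the series not given in the record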
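Detergent-containing run (0.01% Triton X-100) in acetate buffer pH 5.5 with 5 mM DTT: enzyme at 1.5 nM final, 15 min compound preincubation at room temperature, then 2 uM Z-FR-AMC substrate. Activity taken as 60 s fluorescence increase at 360/450 nm.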
LASV entry inh = blocks Lassa virus binding to or entry into cells; Lassa virus pseudotype entry inhibition, cell reporter; control for the full effect not named in the record; Potency, µM (titrated, usually from 37.9 µM), for inactives: at the top dose activity change, negative = inhibition, hits mostly inhibitors; 1.2% of 300,000 active; AID 540256; active means well fitted inhibition curve with a large enough effect; inconclusive means small, poorly fitted or top-dose-only effect, or effect the other way; inactive means flat fitted curve, though single readings scatter; tested in HEK293 cells; note: % is set by controls: 0 for no effect and ±100 for the full control effect; nearly all actives have a fitted effect of over 50% in size; luciferase read-out
MARV entry inh = Marburg virus entry inhibition; AID 540276; Potency, µM (highest dose often 37.8 µM), without a hit: top-dose activity change, negative = inhibition, most hits filed as inhibitors; Marburg virus pseudotyped entry inhibition, cell reporter; control for the full effect not named in the record; about a third of the inactives were read at about 46 µM; 1.8% of 300,000 active; active = well fitted inhibition curve with a large enough effect; inconclusive = small, poorly fitted or top-dose-only effect, or effect the other way; inactive = flat fitted curve, though single readings scatter; tested in HEK293 cells; about a fifth of its hits are not listed in these tables; note: % is set by controls: 0 for no effect and ±100 for the full control effect; luciferase read-out
RE007 growth inh = less growth of the S. pombe RE007 Vpr strain; S. pombe RE007 Vpr strain, BacTiter-Glo ATP luminescence, 24 h; control for the full effect not named in the record; Potency, µM (titrated, usually from 92.2 µM), inactives show top-dose activity change, negative = less growth; 0.21% of 360,000 active; AID 651644; active = well fitted falling curve with a large enough effect; inconclusive = small, poorly fitted or top-dose-only effect; inactive = no such curve, though single readings can be large or run the other way;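 note: % is set by controls: 0 for no effect and ±100 for the full control effect; nearly all actives have a fitted effect of over 50% in size; the assay follows cell death caused by Vpr and the record does not say whether a fall means rescue or toxicity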
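Fission yeast strain RE007, carrying one chromosomally integrated HIV-1 vpr copy, was seeded at OD 0.01 in PMG+AL medium with 23 nL pinned compound. After 24 h at 30 °C and 99% humidity, viability was read by BacTiter-Glo luminescence.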
SARS PLP yeast = blocks SARS-CoV papain-like protease in a yeast assay; S. cerevisiae expressing SARS-CoV PLpro, growth rescue; control for the full effect not named in the record; Potency, µM (doses to about 32.9 µM), for the others: top-dose activity, positive = growth rescue; 0.19% of 330,000 active; AID 485353; active means well fitted rising curve with a large enough effect; inconclusive means small, poorly fitted or top-dose-only effect; inactive means no such curve, though single readings can be large or run the other way; note: 0% is about no effect; nearly all actives have a fitted effect of over 55% in size; growth read by luminescence after 48 h
* = called active by the depositor; ? = inconclusive; · = no result given; & = joins results of further samples; [ ] = remark or other dose. Unless noted, calls come from the whole dose curve; as a rule, active = well fitted curve in the direction sought with a large enough effect; inconclusive = small, poorly fitted or top-dose-only effect, or another doubt; inactive = no such curve, though single readings can be large; an effect the other way counts as inactive or inconclusive. Potency is the fitted concentration of half-maximal effect.

| SMILES | StopGo reporter | NS1 function inh | Cruzain inh noDet | Cruzain inh Det | LASV entry inh | MARV entry inh | RE007 growth inh | SARS PLP yeast |
| --- | --- | --- | --- | --- | --- | --- | --- | --- |
| COc1ccc(-n2c(=O)c3c(C)c(C)sc3n(Cc3ccc(F)cc3)c2=O)c(OC)c1 | -16.7%&-17.5% | · | 4.4% | -8.1% | -9.8%&12.5%[46.1 µM] | 0.6%&16.2%[46.1 µM] | 10.4% | 0.7% |
| CCC1CN(C(=O)N2CCC(C(=O)NCc3cccc(F)c3)CC2)c2cc(C)ccc2O1 (stereo unspecified) | ? | · | ? | -6.1% | ? | · | · | · |
| COC(=O)CON1C(=O)c2ccccc2C1=O | -15.5% | 14.9% | -3.0% | -1.0% | 4.0% | 2.9% | -16.3% | -3.6% |
| Cn1nnnc1SCC(=O)Nc1nc2c(F)c(F)c(F)cc2s1 | 17.1% | · | · | · | 11.4%[46.1 µM] | -12.0%[46.1 µM] | 6.4% | 4.5% |
| CN1C(=O)CSC1=Nc1ccc(F)cc1 | -0.6% | -10.2% | · | · | 6.4% | ? | -10.7% | 2.3% |
| O=C(Nc1ncc2c(n1)-c1ccccc1OC2)c1cccc([N+](=O)[O-])c1 | -2.5% | · | · | · | -22.5% | 0.6% | 5.6% | 2.3% |
| O=S(=O)(c1ccc(Br)s1)n1cccn1 | 3.5% | 1.9% | 1.3% | 3.8% | 23.3% | -19.1% | 5.6% | 2.7% |
| Cc1c(C(=O)Nc2ccccc2)csc1-c1ccccc1 | -24.4% | -6.6% | -18.4% | -0.9% | ? | ? | 12.4% | 1.5% |
| CCN(CC)C(=O)c1ccc2nc3ccccc3nc2c1 | 45.1%[activator] | -15.8% | -11.8% | -6.1% | 20.9% | 25.4% | -13.9% | 3.2% |
| Cc1ccc(-c2nn[nH]n2)cc1 | 9.9% | -1.6% | 7.3% | 3.0% | 15.0% | 4.1% | -1.6% | 2.3% |

Pulled by compound from the list above, four records:
| SMILES | StopGo reporter | NS1 function inh | Cruzain inh noDet | Cruzain inh Det | LASV entry inh | MARV entry inh | RE007 growth inh | SARS PLP yeast |
| --- | --- | --- | --- | --- | --- | --- | --- | --- |
| CCC1CN(C(=O)N2CCC(C(=O)NCc3cccc(F)c3)CC2)c2cc(C)ccc2O1 (stereo unspecified) | ? | · | ? | -6.1% | ? | · | · | · |
| COc1ccc(-n2c(=O)c3c(C)c(C)sc3n(Cc3ccc(F)cc3)c2=O)c(OC)c1 | -16.7%&-17.5% | · | 4.4% | -8.1% | -9.8%&12.5%[46.1 µM] | 0.6%&16.2%[46.1 µM] | 10.4% | 0.7% |
| Cn1nnnc1SCC(=O)Nc1nc2c(F)c(F)c(F)cc2s1 | 17.1% | · | · | · | 11.4%[46.1 µM] | -12.0%[46.1 µM] | 6.4% | 4.5% |
| CN1C(=O)CSC1=Nc1ccc(F)cc1 | -0.6% | -10.2% | · | · | 6.4% | ? | -10.7% | 2.3% |

Going on with the list:
| SMILES | StopGo reporter | NS1 function inh | Cruzain inh noDet | Cruzain inh Det | LASV entry inh | MARV entry inh | RE007 growth inh | SARS PLP yeast |
| --- | --- | --- | --- | --- | --- | --- | --- | --- |
| CCOc1ccc(NC(=O)CCc2c(C)nn(-c3ccc(N4CCCCC4)nn3)c2C)cc1 | -2.4% | -9.5% | · | · | · | · | -6.3% | -6.0% |
| Cc1cccc(N(Cc2ccccc2)C(=O)c2cc(S(=O)(=O)N3CCOCC3)ccc2Cl)c1 | -0.3% | · | · | · | ? | 12.6µM* | 0.3% | 3.5% |
| CCOC(=O)CC(c1ccc(N)cc1)n1c(C)ccc1C (stereo unspecified) | -20.7% | -0.4% | · | · | 11.7%[46.1 µM] | ? | 3.8% | -1.9% |
| COc1ccc(NC(=O)c2c(NCc3cccs3)sc3c2CCCCC3)cc1 | 57.9%[activator] | · | -13.7% | -8.4% | -2.8%[46.1 µM] | · | · | · |
| CN1C(=O)c2c(sc3c2CC(C)(C)SC3)N2CCN=C12 | ? | -9.0% | -3.4% | 5.6% | -6.3% | -10.0% | -11.5% | -0.3% |
| O=C1COc2ccc(S(=O)(=O)CCC(=O)NC3CCCCC3)cc2N1 | -0.9% | -17.5% | · | · | -1.9%[46.1 µM] | 3.4%[46.1 µM] | -5.7% | -0.7% |
| COc1ccc(-n2nc(C(=O)NCC(=O)NCCC3=CCCCC3)c3ccccc3c2=O)cc1 | -16.1% | 12.7% | · | · | · | -19.4%[46.1 µM] | -9.3% | 0.6% |
| CCn1c(SCc2cccnc2)nc2c1c(=O)n(C)c(=O)n2C | -11.2% | -11.1% | -1.6% | -0.9% | 9.2% | -11.0% | -15.3% | -2.9% |
| N#Cc1c2n(c3c(=O)n(CC(=O)c4ccc(Br)cc4)cnc13)CCCC2 | -24.4% | -29.3% | -17.0% | 1.1% | 2.1% | -7.3%[46.1 µM] | 1.5% | -0.9% |
| CC(C)CC(=O)/C(=C\c1ccc(Cl)cc1Cl)n1cncn1 | 7.94µM* | -45.2% | ? | -5.3% | 0.581µM* | ? | ? | -90.9% |
| Cc1ccc(C(=O)N[C@H](C(=O)OCc2cc(=O)n3c(n2)sc2ccccc23)C(C)C)cc1 | 2.6% | -12.1% | ? | -10.4% | 13.8% | 2.8% | -2.2% | 14.6% |
| COc1cc(C(=O)NC(=S)Nc2ccc(N3CCCC3)cc2)cc(OC)c1OC | -17.9% | 12.6µM* | ? | -16.4% | -18.1% | 24.4% | 4.6% | 5.3% |
| COc1ccccc1CNC(=O)C(C)c1ccc([N+](=O)[O-])cc1 (stereo unspecified) | -4.9% | 1.8% | · | · | 2.6%[46.1 µM] | -8.8%[46.1 µM] | -12.5% | 1.1% |
| C/C(=N\NC(=O)Cn1nc(C)cc1C)c1ccc([N+](=O)[O-])cc1 | 4.9% | 4.3% | · | · | · | · | 1.5% | 0.2% |
| Cc1cnc(CN2CCc3c([nH]c4ccccc34)C2CC(C)C)[nH]1 (stereo unspecified) | -10.6% | 4.0% | · | · | 11.2% | ? | -11.5% | -1.7% |
| COc1ccc2c(c1)CC/C(=C\Nc1ccc3c(c1)OCO3)C2=O | · | -69.9% | -2.1% | -8.3% | ? | ? | 0.1% | -27.1% |
| CCOc1ccc(NC(=O)CSc2c3c(nc4ccccc24)CCCC3)cc1 | ? | · | 1.8% | -6.7% | ? | 3.8%[46.1 µM] | · | · |
| CC(=O)NCCc1nc2cc(NC(=O)c3ccc(F)cc3)ccc2n1C | -17.8% | -2.8% | · | · | -11.6% | ? | 105.0% | -1.9% |
| O=C(CSc1nnc(-c2ccccc2)n1Cc1ccccc1)NC1CC1 | · | 21.7% | 2.7% | 3.8% | 0.3% | -1.0% | -9.8% | 2.7% |
| Cc1ccc2[nH]c(=O)c(CN(C)S(=O)(=O)c3cccc4nonc34)cc2c1 | -19.5% | -5.9% | · | · | · | · | -1.0% | ? |
| COc1ccc2c(=O)c3c(=O)n(Cc4ccccc4)c(C(C)C)nc3oc2c1 | -18.0% | · | · | · | -2.7% | -6.3%[46.1 µM] | -9.9% | · |
| Cc1cc(C)nc(N/N=C/c2cccc3ccccc23)n1 | 19.5% | -23.3% | -3.2% | -7.5% | 6.7% | 3.9% | -6.8% | 3.6% |
| CCN1CCN(C(c2cccs2)C(C)NC(=O)c2c(F)cccc2F)CC1 (stereo unspecified) | 8.9% | -4.3% | -5.6% | 7.2% | 27.1% | 0.1% | -10.0% | -7.7% |
| COc1cccc(-c2cc(C(F)(F)F)nc(-n3nc(C)c(Br)c3C)n2)c1 | 0.0% | · | 3.3% | -4.5% | 4.0%[46.1 µM] | 1.7%[46.1 µM] | · | · |
| Cc1ccc(C)c(N2CCN(C(=O)CN3C(=O)CSc4c3c(C)nn4-c3ccccc3)CC2)c1 | 35.5µM* | · | -8.1% | -2.3% | 10.8%[46.1 µM] | · | · | · |
| COC(=O)C1=C(C(=O)OC)[C@@H]2N(C)c3ccccc3[C@@]23C[C@@H](C(=O)OC)N(C(=O)C2CCC2)C3=N1 | ? | 0.2% | · | · | · | · | 17.8% | -3.3% |
| COc1ccc(NC(=O)COc2nsnc2N2CCOCC2)c(OC)c1 | -27.4% | 10.2% | · | · | · | · | 10.4% | 2.0% |
| COc1ccc2oc(=O)c(C(=O)NCc3cccnc3)cc2c1 | -8.9% | 3.2% | 4.5% | -26.6% | -1.9% | -4.2% | -6.0% | -20.1% |
| O=C(OCC(=O)N1CCc2ccccc2C1)c1cc(=O)[nH]c2ccccc12 | 49.7%[activator] | -60.9% | · | · | · | · | -4.3% | -2.1% |
| O=S(=O)(c1ccc(Br)s1)N1CCNCC1 | -8.6% | -1.6% | · | · | · | · | -2.8% | 0.5% |
| O=C(CSc1nc2ccccc2s1)Nc1ccc(N2CCOCC2)c(Cl)c1 | ? | 8.9% | -3.9% | -4.9% | -12.1% | -20.1% | -15.1% | -26.6% |
| CCCC1(C)SC(NC(C)=O)=NN1C(C)=O (stereo unspecified) | 10.7% | 2.7% | 0.6% | 4.0% | 13.9% | -1.1% | -4.8% | 4.6% |
| COc1ccc(NC(=O)[C@H](Cc2ccccc2)N2Cc3ccccc3C2=O)cc1OC | 2.8% | · | ? | -5.2% | 3.5%[46.1 µM] | ? | · | · |
| COc1ccc(CNC(=O)CCOc2ccc(C(C)(C)C)cc2)cc1 | -18.9% | 0.4% | 6.2% | -7.3% | ? | 4.3%[46.1 µM] | 12.7% | 2.7% |
| Cn1c(=O)c2cc(S(=O)(=O)NCCC(=O)NCC3CCCO3)ccc2n(C)c1=O (stereo unspecified) | 1.1% | 1.3% | 1.4% | 4.3% | -4.3% | ? | 20.4% | -0.6% |
| C=CCc1cccc2cc(C(=O)NCCOC)c(=O)oc12 | 19.3% | -3.2% | · | · | -0.7% | -4.7%[46.1 µM] | -15.4% | -1.8% |
| CC(C)CN1CCN(Cc2cc(F)ccc2-n2cccn2)CC1CCO (stereo unspecified) | -24.5% | 1.3% | · | · | · | · | 8.1% | 0.6% |
| Brc1ccc(CN2CCc3nc(N4CCN(c5ncccn5)CC4)ncc3C2)cc1 | ? | · | -17.1% | -9.1% | -6.8%[46.1 µM] | · | · | · |

Assay outcomes as filed in PubChem.
